LANA-nucl inh = inhibitors of KSHV LANA-nucleosome binding, primary screen, biochemical, fluorescence polarization, FITC-LANA1-23, chicken nucleosomes; 51,000 tested, 0.3% active; AID 720717, 2013; z-score (test concentration not listed); FITC-LANA1-23 / chicken nucleosome fluorescence polarization; hits give low values;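 active = both repeat wells score below -2 in polarization z-score versus plate sample wells, excluding overly bright wells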;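 note: 100 nL library stock added to about 30 µL; numbers are from one replicate; some results filed as inactive read as strong as hits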
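Test system: purified chicken nucleosomes with FITC-labelled LANA N-terminal peptide (1-23); Input: 240 nM purified chicken nucleosomes (480 nM peptide binding sites), final; Medium: TEN-BT buffer, pH 7.5; Timing: 10–45 min, room temperature; Technique: fluorescence polarization, 480 nm excitation, 535 nm parallel and perpendicular emission; Replication: duplicates.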
Ab BasE inh = BasE siderophore enzyme inhibitors, primary screen, biochemical, Acinetobacter baumannii ATCC 17978, fluorescence polarization; inhibition, % (concentration not given with the values); purified BasE, fluorescence polarization binding displacement; 84,000 tested, 0.1% active;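 active = both replicates above 25% with normal brightness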;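 note: 0% = negative plate control signal and 100% = positive plate control signal; stock transfer was 100 nL into about 30 µL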
Starred values were filed as active, the others as inactive; x = no result given. A portion of the library; count on the stated rates, not on these rows.

SMILES | LANA-nucl inh | Ab BasE inh
COc1ccccc1NC(C)C(=O)N/N=C/c1cccs1 (stereo unspecified) | -0.142 | -0.5
Cc1c(NC(=O)COC(=O)C23CC4CC(CC(O)(C4)C2)C3)c(=O)n(-c2ccccc2)n1C | x | 1.3
CCCN(CCC)C(=O)c1cc2c(=O)n3ccccc3nc2s1 | -1.35 | 0.2
COc1ccc(CNC(=O)NC2CCN(S(=O)(=O)c3ccc(OC)cc3)CC2)cc1 | 0.0685 | -0.3
CC(=O)Nc1ccc(Oc2cnc3ccccc3n2)cc1 | 0.423 | x
CCOC(=O)C1CCCN(C(=O)CSc2ccc(Br)cc2)C1 (stereo unspecified) | x | -1.9
Cc1cc(NC(=O)C2CCN(C(=O)OCc3ccccc3)CC2)n(C)n1 | x | 3.0
O=C(OCc1ccccc1)/C(=C/c1cccs1)c1cccs1 | x | 1.9
COC(=O)Cn1c(O)c(N=NC(=O)Cn2nnc3ccccc32)c2ccccc21 | x | 2.2
CCC(C)NC(=O)c1cc(-c2ccc(OC)c(OC)c2)no1 (stereo unspecified) | -1.07 | -7.3
COC(=O)/C=C1/OC(c2ccc(Cl)cc2)=CC1=O | -0.056 | -10.4
COc1ccc(Cc2nnc(SCCN3C(=O)c4ccccc4C3=O)n2N)cc1 | x | 2.2
O=C(Nc1c(F)cccc1Cl)N1CCOCC1 | 0.59 | x
COC(=O)C1=C(CN2CCc3ccccc32)NC(=O)NC1c1cccc(OC)c1 (stereo unspecified) | 0.446 | 1.4
Cn1nc(C(=O)NN2CC(=O)NC2=O)c2ccccc2c1=O | x | 0.4

The final 4 compounds of the part before come first, to join the parts:
SMILES | LANA-nucl inh | Ab BasE inh
COc1ccc(Cc2nnc(SCCN3C(=O)c4ccccc4C3=O)n2N)cc1 | x | 2.2
O=C(Nc1c(F)cccc1Cl)N1CCOCC1 | 0.59 | x
COC(=O)C1=C(CN2CCc3ccccc32)NC(=O)NC1c1cccc(OC)c1 (stereo unspecified) | 0.446 | 1.4
Cn1nc(C(=O)NN2CC(=O)NC2=O)c2ccccc2c1=O | x | 0.4
O=C1CC(=O)N(Cc2ccco2)C(=O)N1 | 0.611 | 2.1
Nc1cccc(OCC(=O)N2CCOCC2)c1 | 0.722 | 1.4
CCOC(=O)c1c(N2C(=O)C=CC2=O)sc(C)c1-c1ccccc1 | x | 0.5
CN(C)S(=O)(=O)c1ccc2nnn(OCC(=O)NCc3ccco3)c2c1 | x | -2.1
CCOC(=O)c1oc2ccccc2c1COC(=O)Cn1cnnn1 | x | 0.9
CCc1ccccc1NC(=O)C1CC(c2ccccc2OC)=NO1 (stereo unspecified) | -0.333 | 1.0
CC(=O)OCC(=O)[C@@]1(O)CC[C@H]2[C@@H]3CCC4=CC(=O)CC[C@]4(C)[C@@]3(F)[C@@H](O)C[C@@]21C | -0.221 | -0.5
CCC(CC)N1CCN(S(=O)(=O)c2ccc(NC(C)=O)cc2)CC1 | 0.786 | -1.7
CC(=O)N1c2ccc(C)cc2C2=NNC(=S)NC21O (stereo unspecified) | 0.21 | 2.2
COC(=O)c1c(C)oc(C)c1S(=O)(=O)Nc1c(-c2ccccc2)c(C(F)(F)F)nn1C | 0.293 | 3.5
CC(C)C(=O)/C(C#N)=N/Nc1ccc(F)cc1 | 0.823 | 4.3
Cc1cccc2nc(CSc3nncn3-c3ccccc3F)cc(=O)n12 | x | 1.4
O=C(O)c1ccc2c(c1)NC(=O)C(CSCc1cccc(F)c1)N2 (stereo unspecified) | -0.229 | -12.4
CC1CCCC(NC(=O)CCCn2c(=O)c3cccn3c3cccnc32)C1C (stereo unspecified) | -0.229 | -2.4
Cn1nnc2cc(NC(=O)NC3CCCCC3)ccc21 | -1.24 | -0.4
COc1cccc(/C=C/C(=O)Nc2ccc3nc4n(c(=O)c3c2)CCCC4)c1OC | -0.81 | -1.3
CC(C)(C)NC(=O)N1CCC(C(=O)c2ccccc2)CC1 | -0.515 | 2.7
CN(C)S(=O)(=O)c1cccc(C(=O)NC2CCCCCC2)c1 | x | 3.0
COc1cc(S(=O)(=O)Nc2cc3oc4ccccc4c3cc2OC)ccc1NC(C)=O | x | -1.3
O=c1cc(C(F)(F)F)nc2cc(-c3ccccc3)[nH]n12 | -0.75 | 1.4
NNC(=O)CS(=O)(=O)c1ccc(Cl)cc1 | x | -2.1
CCOC(=O)C1CCN(C(=O)COC(=O)c2c(C)c(CC)nc3ccccc23)CC1 | x | -4.3
Cc1cccc(Nc2cc(N3CCOCC3)ncn2)c1 | 0.199 | 1.7
CCn1c(CNC(=O)c2ccc3c(c2)OCO3)nnc1SCC(=O)NC1CCCCC1 | 0.691 | -1.3
CN(Cc1ccccc1)C(=O)COC(=O)c1cc(=O)c2ccccc2o1 | x | -0.2
Cc1ccccc1OCC(=O)Nc1cccc(-c2nnc(-c3ccco3)o2)c1 | x | -1.0
O=C(c1cnn(-c2ccccc2)n1)N1CCCSc2ccccc21 | x | 0.5
Cc1ccc(NC(=O)C2CCCN(S(=O)(=O)N3CCOCC3)C2)cc1Cl (stereo unspecified) | 1.2 | -2.9
CC1CCN(C(=O)CN2c3cccc4cccc(c34)S2(=O)=O)CC1 | x | 1.8
O=C(CCCn1c(=O)oc2ccccc21)Nc1cccnc1 | x | 0.9

Fetched by compound from the list above (4):
SMILES | LANA-nucl inh | Ab BasE inh
Cc1cccc(Nc2cc(N3CCOCC3)ncn2)c1 | 0.199 | 1.7
CN(C)S(=O)(=O)c1cccc(C(=O)NC2CCCCCC2)c1 | x | 3.0
COc1cccc(/C=C/C(=O)Nc2ccc3nc4n(c(=O)c3c2)CCCC4)c1OC | -0.81 | -1.3
CC(C)(C)NC(=O)N1CCC(C(=O)c2ccccc2)CC1 | -0.515 | 2.7

The list goes on.
SMILES | LANA-nucl inh | Ab BasE inh
Cc1ccc(/C=C2/C(=O)NC(=O)N(C3CCCCC3)C2=O)cc1 | -0.203 | 1.8
[O-][n+]1onc2c1CCc1nnccc1-2 | -0.0775 | -2.8
CC(C)[C@H](NC(=O)c1ccccc1)C(=O)N1CCN(c2ccccc2)CC1 | x | -1.3
CCOC(=O)c1c(C)[nH]c(C)c1C(=O)CSc1ncccn1 | x | -1.6
NS(=O)(=O)c1ccc(CNS(=O)(=O)c2cccc3nonc23)cc1 | 0.12 | 0.1
CC1CCCCC1NC(=O)Cn1nc(C(=O)O)c2ccccc2c1=O (stereo unspecified) | x | 3.2
COC(=O)c1sc(=S)n(-c2ccc(Cl)cc2)c1C | x | 2.0
Cc1csc(=O)n1CC(=O)OCc1nc2ccccc2s1 | x | 0.7
CC(=O)Nc1cccc(C(=O)N2CCN(c3ccccc3)CC2)c1 | 0.0915 | 0.7
COc1ccc2c(c1)C(=O)N(c1ccccc1C)C(=O)C2(C)C | x | -2.6
CCN1CCN(C(=O)c2cn(C)nc2-c2ccc3c(c2)OCCCO3)CC1 | x | 1.0
Cc1ccc(C(=O)N(Cc2ccc3c(c2)OCO3)C2CCCC2)o1 | x | 1.2
O=C1c2cccc3c(Cl)ccc(c23)C(=O)N1c1ccccn1 | -0.256 | 5.4
COC(=O)Cc1[nH]n(-c2nc3ccccc3s2)c(=O)c1C(C)=NC1CC1 | 1.16 | 0.5
O=C1C2ON(c3ccccc3)C(c3ccc(F)cc3)C2C(=O)N1c1ccccc1 (stereo unspecified) | 0.916 | -1.3
Cc1c(C(=O)NC2CCN(Cc3ccccc3)CC2)cnn1-c1ccc(F)cc1 | x | 2.7
Cc1nn(C)c(C)c1CNC(=O)c1ccc(N2CCOCC2)nc1 | x | -0.7
COc1ccc(S(=O)(=O)Cc2ccc(C(=O)O)o2)cc1 | 0.55 | 3.2
Nn1c(Cc2ccccc2F)nnc1SCC(=O)NCc1ccc2c(c1)OCO2 | x | -1.3
CCCCSc1nnc(CNC(=O)c2ccccc2)n1-c1ccccc1 | -0.683 | 1.6
COc1ccccc1C(=O)Nc1ccc2c(c1)nc(CCNC(=O)c1ccco1)n2C | 0.164 | -18.5
COc1ccccc1Cn1cnc2ccccc21 | -0.507 | 5.3
CCCCOc1ccc(CSCCN=C(N)N)cc1 | 0.121 | 0.4
O=S(=O)(NCC(c1ccco1)N1CCN(c2ccc(F)cc2)CC1)c1cc(F)ccc1F (stereo unspecified) | -0.525 | -2.0
COc1ccc(CCCN=C(N)N)cc1Cl | 2.94 | -3.3
CCOC(=O)c1c(NC(=O)COC(=O)c2ccc(Br)o2)sc(C)c1CC | x | -3.3
Cc1ccc(S(=O)(=O)N(CC(=O)N2CCCCCC2)c2ccc(C)c(Cl)c2)cc1 | x | 2.2
O=C1C2CC=CCC2C(=O)N1c1ccc(Cl)cc1 (stereo unspecified) | x | -4.0
CC(C)C(C)NC(=O)Nc1ccc(Cl)cc1 (stereo unspecified) | x | 1.0
C/C(=N\NC(=O)c1cccnc1)C1COc2ccccc2O1 (stereo unspecified) | 0.201 | 2.1

Given with two lines to a compound: part of the list above
Each structure is followed by: LANA-nucl inh	Ab BasE inh
CCOC(=O)c1c(NC(=O)COC(=O)c2ccc(Br)o2)sc(C)c1CC
 : x	-3.3
Cc1ccc(S(=O)(=O)N(CC(=O)N2CCCCCC2)c2ccc(C)c(Cl)c2)cc1
 : x	2.2
O=C1C2CC=CCC2C(=O)N1c1ccc(Cl)cc1 (stereo unspecified)
 : x	-4.0
CC(C)C(C)NC(=O)Nc1ccc(Cl)cc1 (stereo unspecified)
 : x	1.0
C/C(=N\NC(=O)c1cccnc1)C1COc2ccccc2O1 (stereo unspecified)
 : 0.201	2.1

Other records
SMILES | LANA-nucl inh | Ab BasE inh
N#Cc1cc(C#N)c(SCc2cc(=O)n3cc(Br)ccc3n2)nc1N | x | 2.7
CC1CCCN(C(=O)CCS(=O)(=O)Cc2ccccc2)C1 (stereo unspecified) | 0.735 | -0.6
C=CCc1cccc(CNc2ccc(C(=O)OCC)cc2)c1O | 0.318 | -0.5
COC(=O)CSc1nc(C)cc(C)n1 | -0.0315 | 0.5
CC(C)CC(OC(=O)c1cccs1)C(=O)NCc1cccs1 (stereo unspecified) | 0.13 | -0.2
Cc1cc(=O)[nH]c(SCC(=O)c2ccc(F)cc2)n1 | x | 2.6
COc1cc2c(cc1OC)CN(C(=O)C1CCCN1S(=O)(=O)c1ccc(C)cc1)CC2 (stereo unspecified) | -1.69 | -0.2
C=CCn1cnc2sc3c(c2c1=O)CCC(C)C3 (stereo unspecified) | x | 1.2
COc1ccc(C(=O)NC(=S)Nc2ccc3[nH]c(=O)[nH]c3c2)cc1Br | x | 2.2
CCc1cc2c(=O)n(Cc3ccco3)c(SC)nc2s1 | 0.127 | 1.2
CCC(=N\Nc1nc2ccccc2[nH]1)/C(CC)=N/Nc1nc2ccccc2[nH]1 | x | 0.4
CCOC(=O)c1noc(C)c1-c1csc(COc2cc(Cl)cc(Cl)c2)n1 | x | 1.6
COC(=O)c1ccc(OCC2c3cc(OC)c(OC)cc3CCN2C(=O)c2ccc(Br)o2)cc1 (stereo unspecified) | -0.477 | 3.0
O=C(O)C1CC2CCC(C1)C21SCCS1 (stereo unspecified) | x | -1.9
NS(=O)(=O)c1ccc(NC(=O)NC2CC(=O)N(c3ccc(Cl)cc3)C2)cc1 (stereo unspecified) | -1.75 | -2.8
Cc1nc(/C(=N/O)C(N)=O)cs1 | x | -2.1
O=C1c2ccccc2C(=O)C1(c1ccccc1)N1CCN(CCO)CC1 | 0.564 | -0.2
COc1ccc(-c2cc(=O)[nH]c(=S)[nH]2)cc1 | -0.11 | -1.9
Cc1ccccc1-n1c(SCC(=O)N(C(C)C)C(C)C)nnc1-c1cccnc1 | -0.235 | 0.2
C/C=C(\C)C(=O)OC1c2c(ccc3ccc(=O)oc23)OC(C)(C)C1OC(C)=O (stereo unspecified) | 0.431 | 1.0
Cc1ccc(NC(=O)CCNS(=O)(=O)c2ccc3c(c2)CC(C)N3C(=O)C2CC2)cc1C (stereo unspecified) | -1.53 | 3.1
O=C1C2=C(c3ccccc31)[N+](=O)[C@@H]1CCCC[C@@H]1N2[O-] | -0.287 | -1.0
Cc1ccc(NC(=O)CCc2ccc(C)o2)c(Br)c1 | -0.938 | -1.6
O=C(O)C=Cc1ccc(O)c(O)c1 | -0.086 | 5.7
COc1ccc(C(C)=NNC(=O)c2cc(Br)ccc2O)c(OC)c1 | 0.124 | 23.1
Cc1noc(C)c1CSc1nc2c(c(-c3ccccc3)c1C#N)C(=O)CC(C)(C)C2 | -0.0655 | 0.4
COC(=O)c1ccc(S(=O)(=O)N(C2CCCCC2)C2CCCCC2)n1C | x | -0.1
CCOC1=NC(C(F)(F)F)(C(F)(F)F)N=C(N2CCOCC2)O1 | -0.873 | -2.9
Cc1c(OC(=O)c2ccco2)ccc2c3c(c(=O)oc12)CCC3 | x | -2.2
COC(=O)c1c(C)nn(-c2ccccn2)c1-c1cc(C)on1 | 1.32 | 3.2
Cc1nc2cc(C(=O)OCC(=O)NC3CCS(=O)(=O)C3)ccc2n1-c1ccccc1 (stereo unspecified) | x | -19.2
CCOc1ccc(C(=O)NN2C(=O)c3ccccc3C2=O)cc1 | -0.411 | -0.6
C=CCn1c(SCC(=O)N2CCCCC2C)nc2ccccc2c1=O (stereo unspecified) | x | -1.2
O=C(OCc1ccccc1)Sc1nc2ccccc2o1 | 0.651 | 1.4
CCc1ccccc1N1CC(C(=O)OCCN2C(=O)c3ccccc3C2=O)CC1=O (stereo unspecified) | x | 0.9
Cc1cc(C)c(C#N)c(SCc2ccccc2)n1 | x | -3.8
Cc1ccc2c(c1)c1c(n2C)C(C(N)=O)CCC1 (stereo unspecified) | x | 1.0

Assay outcomes as filed in PubChem BioAssay.
